# From PubChem
# StopGo reporter = lowers the luciferase signal of an FMDV 2A StopGo reporter; Potency, µM (doses to about 57.9 µM), inactives show top-dose signal change, negative = less light; AID 1159524; 410,000 tested, 1.2% active; human cells with a luciferase reporter of 2A StopGo recoding; control for the full effect not named in the record; active = well fitted falling curve with a large enough effect; inconclusive = small, poorly fitted or top-dose-only effect; inactive = no such curve, though single readings can be large or run the other way; tested in HEK293T cells; also: % is scaled to controls: 0 for no effect and ±100 for the full control effect; nearly all actives have a fitted effect of over 45% in size; luciferase light after 4 h
# Cruzain inh Det = inhibitors of Trypanosoma cruzi cruzain with detergent; P25779; purified cruzain, Z-FR-AMC fluorescence, 0.01% Triton; Potency, µM, inactives show max response, negative = inhibition, hits mostly inhibitors; 200,000 tested, 0.43% active; active = well fitted curve in the direction sought with a large enough effect; inconclusive = small, poorly fitted or top-dose-only effect, or another doubt; inactive = no such curve, though single readings can be large; an effect the other way counts as inactive or inconclusive;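 also: plate controls were neutral wells for no effect and buffer without enzyme for full effect; nearly all actives have a fitted effect of over 40% in size; top concentration of the series not given in the record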
# Target sequence (P25779 123-467 limits assumed): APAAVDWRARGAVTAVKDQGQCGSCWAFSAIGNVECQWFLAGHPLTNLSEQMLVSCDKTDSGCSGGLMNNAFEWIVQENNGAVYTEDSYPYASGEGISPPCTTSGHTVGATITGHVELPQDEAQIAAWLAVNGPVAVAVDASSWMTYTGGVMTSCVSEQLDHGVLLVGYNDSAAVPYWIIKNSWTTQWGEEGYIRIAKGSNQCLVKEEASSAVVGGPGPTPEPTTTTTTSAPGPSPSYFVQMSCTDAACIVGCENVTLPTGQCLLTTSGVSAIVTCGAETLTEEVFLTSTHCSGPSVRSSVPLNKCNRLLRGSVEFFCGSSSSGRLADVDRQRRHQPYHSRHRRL
#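 Sodium acetate buffer (100 mM, pH 5.5) containing 5 mM DTT and 0.01% Triton X-100 hosted 1.5 nM cruzain and test compound for 15 min at room temperature. Cleavage of 2 uM Z-FR-AMC was then tracked by fluorescence.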
# SARS PLpro yeast = blocks SARS-CoV papain-like protease in a yeast assay; S. cerevisiae expressing SARS-CoV PLpro, growth rescue; control for the full effect not named in the record; Potency, µM (doses to about 32.9 µM), for inactives: top-dose activity, positive = growth rescue; 330,000 tested, 0.19% active; also: 0% is about no effect; nearly all actives have a fitted effect of over 55% in size; growth read by luminescence after 48 h
# LASV entry inh = blocks Lassa virus binding to or entry into cells; Lassa virus pseudotype entry inhibition, cell reporter; control for the full effect not named in the record; Potency, µM (titrated, usually from 37.9 µM), for inactives: at the highest dose activity change, negative = inhibition, hits mostly inhibitors; 300,000 tested, 1.2% active; AID 540256; active means well fitted inhibition curve with a large enough effect; inconclusive means small, poorly fitted or top-dose-only effect, or effect the other way; inactive means flat fitted curve, though single readings scatter; tested in HEK293 cells; also: % is scaled to controls: 0 for no effect and ±100 for the full control effect; nearly all actives have a fitted effect of over 50% in size; luciferase read-out
# MARV entry inh = inhibitors of Marburg virus binding or cell entry | AID 540276 | Marburg virus pseudotyped entry inhibition, cell reporter; control for the full effect not named in the record; about a third of the inactives were read at about 46 µM | 300,000 tested, 1.8% active | Potency, µM (doses to about 37.8 µM), for the others: at the top dose activity change, negative = inhibition, most hits filed as inhibitors; active = well fitted inhibition curve with a large enough effect; inconclusive = small, poorly fitted or top-dose-only effect, or effect the other way; inactive = flat fitted curve, though single readings scatter; tested in HEK293 cells; about a fifth of its hits are not listed in these tables; also: % is scaled to controls: 0 for no effect and ±100 for the full control effect; luciferase read-out
# RE007 growth inh = less growth of the S. pombe RE007 Vpr strain. S. pombe RE007 Vpr strain, BacTiter-Glo ATP luminescence, 24 h; control for the full effect not named in the record. Potency, µM (series often up to 92.2 µM), for inactives: top-dose activity change, negative = less growth. 360,000 tested, 0.21% active; active = well fitted falling curve with a large enough effect; inconclusive = small, poorly fitted or top-dose-only effect; inactive = no such curve, though single readings can be large or run the other way;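 also: % is scaled to controls: 0 for no effect and ±100 for the full control effect; nearly all actives have a fitted effect of over 50% in size; the assay follows cell death caused by Vpr and the record does not say whether a fall means rescue or toxicity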
#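 Fission yeast RE007 carrying one integrated HIV-1 vpr copy, seeded at OD 0.01 in PMG+AL medium with 23 nL pinned compound. Grown 24 h at 30 degrees; viability read by BacTiter-Glo luminescence after 5 min.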
# Cruzain noTriton = cruzain (T. cruzi) inhibition without detergent. Potency, µM, inactives show max response, negative = inhibition, actives largely listed as inhibitors. P25779. 200,000 tested, 2.3% active. purified cruzain, Z-FR-AMC fluorescence, no detergent; active = well fitted curve in the direction sought with a large enough effect; inconclusive = small, poorly fitted or top-dose-only effect, or another doubt; inactive = no such curve, though single readings can be large; an effect the other way counts as inactive or inconclusive;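 also: plate controls were enzyme without inhibitor for no effect and buffer without enzyme for full effect; nearly all actives have a fitted effect of over 40% in size; top concentration of the series not given in the record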
#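 Detergent-free condition (0.00005% Triton X-100) in acetate buffer pH 5.5 with DTT. 1.5 nM enzyme and compound were pre-mixed 15 min, then 2 uM Z-FR-AMC substrate added; reaction progress from fluorescence change between first and third reads (60 s).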
# NS1 inh = influenza NS1 inhibition | S. cerevisiae slowed by influenza A NS1, growth recovery by OD600 | Potency, µM (series often up to 46.1 µM), inactives show top-dose activity, positive = more growth | 270,000 tested, 0.4% active | AID 2326; also: actives are rising curves; nearly all actives have a fitted effect of over 50% in size
#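 In this qHTS, NS1 from influenza A is expressed in budding yeast, where it slows growth. Cells are switched from glucose to 2% galactose medium (pH 6.0, -URA), treated with compound, and growth recovery is read at OD600.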
# Numbers without * were called inactive; ? = inconclusive; nt = no result given; & = joins results of further samples; [ ] = another dose, or the depositor's remark. Unless noted, calls follow the shape of the dose curve; as a rule, active means well fitted rising curve with a large enough effect; inconclusive means small, poorly fitted or top-dose-only effect; inactive means no such curve, though single readings can be large or run the other way. Potency is read from the fitted curve at half-maximal effect. Not a hit list (roughly 4.7% active in at least one column).
SMILES,StopGo reporter,Cruzain inh Det,SARS PLpro yeast,LASV entry inh,MARV entry inh,RE007 growth inh,Cruzain noTriton,NS1 inh
N/C(COc1ncn(-c2ccccc2)n1)=N\S(=O)(=O)c1ccccc1,-1%,nt,13%,-5%[46.1 µM],-6%[46.1 µM],12%,nt,0%
COc1ccc(OC)c(NC(=O)c2ccc(NS(C)(=O)=O)cc2)c1,-2%,0.7%,16%,-27%,?,2%,11%,0%
CCN1c2ccccc2NC2N=C(OC)C(c3ccccc3)C21 (stereo unspecified),-12%,-2.2%,-3%,-34%[14.3 µM],23µM*,?,3%,-68%
COC(=O)c1ccccc1NC(=O)N1CCC(n2c(C)nc3cccnc32)CC1,-17%,-3.7%,nt,-23%[46.1 µM],nt,nt,?,nt
COc1ccc(NC(=O)c2cn(C)c(=O)c3cc(OC)c(OC)cc23)cc1OC,-7%,nt,2%,15%[46.1 µM],3%[46.1 µM],2%,nt,-9%
O=C(NCCCn1ccnc1)c1nc(Cn2ccc([N+](=O)[O-])n2)no1,-3%,nt,-1%,nt,-14%[46.1 µM],-15%,nt,6%
O=C(CN1CCN(c2ccc(O)cc2)CC1)NC1CCCc2ccccc21 (stereo unspecified),nt,0.2%,1%,-30%,-30%,nt,-9%,5%
Cc1ccc(CNC(=O)c2cc3c(s2)-c2ccc(Cl)cc2SC3)cc1,22%,-2.3%,nt,?,9%[46.1 µM],nt,13µM*,nt
O=C(NNS(=O)(=O)c1ccccc1C(F)(F)F)c1cccc(S(=O)(=O)Nc2ccccc2Cl)c1,19%,-5.3%,-6%,-1%,3%,8%,7%,-10%
Cc1ccccc1NC(=O)CC(NCc1cccnc1)C(=O)O (stereo unspecified),-12%,-0.7%,nt,3%[46.1 µM],3%[46.1 µM],nt,-5%,nt
CC1CN(CC(O)COc2ccccc2C(C)(C)C)CC(C)O1 (stereo unspecified),?,-2.9%,0%,12%,?,0%,-9%,0%
N#C/C(Cn1c[n+](NC(=O)Nc2ccccc2)cn1)=N/O,19%,-2.4%,9%,12%,?,6%,3%,5%
Cn1c(SCC(=O)Nc2sccc2C(N)=O)nnc1-c1ccncc1,-14%,nt,0%,1%,5%[46.1 µM],1%,nt,-1%
COc1ccc(-c2csc(NC(=S)NC(=O)/C=C/c3ccc(C(C)C)cc3)n2)cc1OC,-22%,nt,-2%,-5%[46.1 µM],?,4%,nt,8%
CCC(C)NC(=O)c1ccc(N2CCC3(CC2)OCCO3)c([N+](=O)[O-])c1 (stereo unspecified),-3%,-3.0%,-1%,6%,?,-3%,22%,15%
O=[N+]([O-])c1cccc(S(=O)(=O)c2ccc(N3CCCCC3)c([N+](=O)[O-])c2)c1,?,-6.8%,-3%,-10%,-20%,-9%,?,27%
Cn1c(CNC(=O)OC(C)(C)C)nnc1SCC(=O)N1CCOCC1,5%,nt,0%,-13%[46.1 µM],6%[46.1 µM],5%,nt,10%
CC1(C)CC(CCNC(=O)CCl)(c2ccccc2)CCO1 (stereo unspecified),-26%,nt,0%,nt,nt,-3%,nt,2%
Cc1ccc(NC(=O)C2CCC(CNS(=O)(=O)c3cccc4nsnc34)CC2)c(C)c1 (stereo unspecified),-14%,3.8%,nt,-14%[46.1 µM],-3%[46.1 µM],nt,-1%,nt
COc1ccccc1C1(O)C(=O)Nc2ccc(C)cc21 (stereo unspecified),-26%,nt,-2%,1%,28%,1%,nt,6%
COc1ccccc1CCNC(=O)Cc1c(C)c2c(cc(C)c3c(C)coc32)oc1=O,27%,-0.8%,nt,29%[46.1 µM],-8%[46.1 µM],nt,17%,nt
CCOc1ccc(C(=O)NCCn2cc(SCC(=O)Nc3cc(C)on3)c3ccccc32)cc1,?,0.4%,-2%,-29%,?,-4%,0%,-25%
CC1CN(C(=O)COC(=O)c2ccc(Cl)nc2)CC(C)O1 (stereo unspecified),-3%,nt,1%,5%,2%[46.1 µM],8%,nt,nt
CCOc1nc(-c2ccccc2Cl)nc2ccccc12,55%[activator],nt,-1%,27%,-21%[46.1 µM],-6%,nt,-12%
CC1CC(C)CN(S(=O)(=O)c2ccc(NC(=O)C3CC(=O)N(Cc4ccccc4)C3)cc2)C1 (stereo unspecified),-9%,nt,2%,nt,nt,24%,nt,-4%
O=C(CSc1nnnn1-c1ccccc1)Nc1ccccc1,7%,nt,-6%,nt,nt,3%,nt,-57%
CC(OC(=O)C1CC1)C(=O)Nc1ccc([N+](=O)[O-])cc1Cl (stereo unspecified),-20%,nt,-4%,1%,7%[46.1 µM],-4%,nt,-1%
Cn1c(N)c(C(=O)COC(=O)c2cc(C3CC3)nc3ccccc23)c(=O)n(Cc2ccccc2)c1=O,2%,1.1%&-2.8%,-4%,7%,-17%,20%,-3%&-20%,11µM*
CC1(C)CC(CCN)(Cc2ccccc2Cl)CCO1 (stereo unspecified),-9%,nt,1%,-7%[46.1 µM],?,6%,nt,-1%
CC(C)(C)c1ccc(-c2nc(S(=O)(=O)c3ccccc3)c(N3CCOCC3)o2)cc1,-11%,-4.1%,nt,?,?,nt,7%,nt
CC1CCc2sc(C(=O)N/N=C/c3ccc(O)cc3)cc2C1 (stereo unspecified),9%,nt,-1%,nt,nt,6%,nt,-7%
CCOc1ccc(N2C(=O)C3C(C2=O)C3(c2ccccc2)c2ccccc2)cc1 (stereo unspecified),?,-5.0%,-22%,-6%,?,8%,-10%,18%
Nc1c(Br)cc(Br)cc1CNC1CCC(O)CC1 (stereo unspecified),-14%&-26%&-10%,4.8%&-15%&-1.9%&5.6%,-1%&-2%,nt,nt,1%[18.4 µM],-7%&4%&-10%&-4%,-7%
O=C(NCc1ccco1)C(c1ccco1)N(Cc1cccs1)C(=O)Cn1nnc2ccccc21 (stereo unspecified),26%,-3.0%,?,?,1%,5%,-22%,10%
CC(C)CNC(=O)C1CCCN(S(=O)(=O)c2ccc(-n3cnnn3)cc2)C1 (stereo unspecified),-22%,4.3%,-3%,11%,17%[46.1 µM],13%,-6%,4%
COc1ccccc1C(=O)N1CCC(c2c[nH]c3ccccc23)(c2c[nH]c3ccccc23)CC1,-28%,-2.5%,nt,-19%[46.1 µM],?,nt,-21%,nt
Cc1ccc(S(=O)(=O)NC(c2ccccc2)C(C)C(=O)n2nc(C)cc2C)cc1 (stereo unspecified),?,-7.3%,-10%,11%,-30%[46.1 µM],-3%,-13%,-50%
COc1cc(NC(=O)CSc2nc(-c3ccco3)cc(C(F)(F)F)n2)cc(OC)c1OC,?,-1.3%,nt,-21%[46.1 µM],-11%[46.1 µM],nt,9%,nt
CCn1c(=O)c2ccccc2n(CC(=O)NCCC2=CCCCC2)c1=O,-7%,nt,-20%,0%,10%[46.1 µM],-14%,nt,12%
Cn1c(=O)c([N+](=O)[O-])c(NCCCn2ccnc2)c2ccccc21,8%,nt,0%,6%,15%[46.1 µM],-13%,nt,1%
COc1cc(C(=O)Nc2cccc(-c3nnc(-c4ccco4)o3)c2)ccc1OC(C)=O,?,nt,-2%,?,?,-12%,nt,2%
COc1ccc(/C=C/C(=O)Nc2cccc(N3CCOCC3)c2)cc1OC,-21%,-9.1%,0%,?,?,-3%,?,-1%
O=C(CCc1nc2ccccc2c(=O)[nH]1)Nc1cc(Cl)ccc1N1CCCC1,-2%,nt,0%,2%,15%,0%,nt,nt
Cc1cccc(-n2c(-c3ccco3)nc3nc4ccccc4nc32)c1,nt,14%,2%,nt,4%,nt,9%,10%
COc1ccc(NC(=O)CN2CCC(C(=O)c3ccc(F)cc3)CC2)c(OC)c1,-25%,nt,2%,-14%,-16%[46.1 µM],-7%,nt,-28%
NC(=O)c1nsc(C(=O)N(c2ccccc2F)C(C(=O)NCc2ccc(F)cc2)c2ccc(O)cc2)c1N (stereo unspecified),-13%,nt,1%,?,?,3%,nt,-3%
Cc1ccc(C)c(N2CCN(CC3CCCCC3)CC2)c1,-17%,nt,-2%,-30%,?,-18%,nt,-15%
CCC(C)N1C(=O)CCC1C(=O)NCc1ccc2c(c1)OCO2 (stereo unspecified),-25%,-5.9%,-7%,nt,nt,-1%,6%,-6%
Cc1cccc(N2CCN(C(=O)c3cc(COc4ccc(F)c(F)c4)on3)CC2)n1,25%,nt,-2%,nt,nt,6%,nt,-35%
COc1ccc2c(c1)-c1nc(/N=C/c3cccc(OC)c3O)sc1CC2,-13%,-5.5%,-48%,14%,?,?,-6%,-64%
CCNC(=O)c1ccc(NS(=O)(=O)c2ccc3[nH]c(=O)[nH]c3c2)cc1,-2%,nt,-5%,-2%[46.1 µM],12%[46.1 µM],9%,nt,-1%
COc1ccc(N/C=C/C(=O)c2sc(-c3ccccc3)nc2C)cc1,-31%,0.0%,-14%,?,?,1%,-1%,-17%
Cc1cc(=O)[nH]c(SC(C(=O)O)c2ccccc2)n1 (stereo unspecified),0%,2.8%,4%,0%,?,-14%,10%,10%
C=CCNc1nc(-c2cc3ccccc3o2)cs1,-62%,-10%,-42%,7.9µM*,?,-26%,6%,-5%
COc1cccc(-c2cc(C(=O)N3CC4(C)CC3CC(C)(C)C4)no2)c1 (stereo unspecified),30%,-11%,-25%,-35%[14.3 µM],?,3%,2%,-81%
Cc1sc2nc(SCC(=O)Nc3cccc(S(N)(=O)=O)c3)[nH]c(=O)c2c1C,-1%,nt,-3%,8%,-21%,-2%,nt,nt
CCOC(=O)N1CCN(CC(O)COc2c(C)cc(C)cc2C)CC1 (stereo unspecified),-24%,nt,2%,nt,nt,0%,nt,-4%
Cn1c(O)c(N=NC(=O)CNC(=O)c2cccnc2)c2ccccc21,-13%,nt,-1%,-1%[46.1 µM],3%[46.1 µM],-3%,nt,-9%
CCn1c(NCc2ccccc2NS(=O)(=O)c2ccc(C)cc2)nc2ccccc21,-1%,-2.0%,10%,?,21µM*,-13%,6%,-33%
CCOc1ccc(C(=O)NCC(=O)NNC(=O)CN(C)S(=O)(=O)c2ccc(Cl)cc2)cc1OCC,-6%,nt,nt,-2%,11%,2%,nt,nt
